Screening data: PubChem, The Scripps Research Institute Molecular Screening Center
OX1R antag-1 – antagonists of human orexin 1 receptor | O43613 | CHO/OX1R cells, Fluo-8 calcium fluorescence, orexin A | inhibition, % at 5 µM | hit rate 0.43% among 330,000 | AID 434989;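 active = inhibition above its plate's threshold, mean inhibition of all tested compounds on the plate plus 3 SD, cut at about 37% in these data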;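 also: 0% = orexin A challenge wells and 100% = SB-334867-A antagonist wells; not every result past the cut was called active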
Target sequence (O43613 whole entry, looked up): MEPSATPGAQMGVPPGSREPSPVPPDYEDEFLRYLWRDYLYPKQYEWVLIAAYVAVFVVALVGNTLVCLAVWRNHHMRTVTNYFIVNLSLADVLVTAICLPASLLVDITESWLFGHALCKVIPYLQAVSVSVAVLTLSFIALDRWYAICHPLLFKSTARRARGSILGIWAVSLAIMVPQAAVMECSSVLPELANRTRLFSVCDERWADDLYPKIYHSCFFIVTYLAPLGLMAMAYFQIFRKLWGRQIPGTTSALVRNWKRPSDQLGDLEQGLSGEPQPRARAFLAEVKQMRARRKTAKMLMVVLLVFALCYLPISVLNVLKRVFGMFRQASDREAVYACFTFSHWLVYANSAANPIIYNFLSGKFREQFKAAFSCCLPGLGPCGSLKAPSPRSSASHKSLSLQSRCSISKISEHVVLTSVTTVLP
OX1R antag-2 – antagonists of human orexin 1 receptor (OX1R); O43613; OX1R-expressing cells, FRET antagonist read-out; inhibition, % at 6.6 µM; hit rate 1.8% among 330,000; AID 485270; in the data active = inhibition mostly above about 38%, no sharp cut-off; inactive = mostly below about 40%;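 also: 0% = agonist challenge alone and 100% = reference antagonist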
Starred values were filed as active, the others as inactive. An excerpt, and most or all hits are left out here.

SMILES	OX1R antag-1	OX1R antag-2
COc1cccc(N2CC(C(=O)Nc3nnc(SCC(=O)Nc4cc(C)on4)s3)CC2=O)c1 (stereo not drawn)	4	16
COc1ccc(CCNC(=O)c2cc(-c3ccco3)on2)cc1OC	-32	12
CC(C)C[C@H](NC(=O)[C@@H]1O[C@H]1C(=O)O)C(=O)NCCCCN=C(N)N	-12	6
CCOC(=O)c1c(C)[nH]c(C(=O)COC(=O)CSC)c1C	-12	17
O=C(CC(O)(c1ccccc1)C(F)(F)C(F)F)c1cccs1 (stereo not drawn)	-10	3
Brc1ccc2c(c1)C(C1=NCCN1)c1ccccc1CS2 (stereo not drawn)	-1	11
CNC(CC(C)C)C(=O)NC1C(=O)NC(CC(N)=O)C(=O)NC2C(=O)NC3C(=O)NC(C(=O)NC(C(=O)O)c4cc(O)cc(O)c4-c4cc3ccc4O)C(O)c3ccc(c(Cl)c3)Oc3cc2cc(c3OC2OC(CO)C(O)C(O)C2OC2C[C@](C)(N)C(O)C(C)O2)Oc2ccc(cc2Cl)C1O (stereo partly drawn)	-5	14
COc1ccc(CN2CCNC(=O)C2CC(=O)NCCC2=CCCCC2)c(F)c1 (stereo not drawn)	-35	13
CCc1cc2c(C)ccc(C)c2nc1SCC(=O)Nc1cc(C)on1	-6	14
O=C(CSc1nnnn1C1CCCC1)NCc1ccc2c(c1)OCO2	-24	29
CC(=O)Nc1c(C#N)c(C(C)(C)C)cn1C	9	2
CC(C)c1ccc(N(C(=O)c2csnn2)C(C(=O)NC(C)(C)C)c2cccnc2)cc1 (stereo not drawn)	-29	12
O=C(O)c1ccccc1-c1ccccc1C(=O)Nc1ccc2c(c1)[nH]c(=O)c1ccccc12	4	2
COc1ccc(CC(=O)OCC(=O)NC(=O)NC23CC4CC(CC(C4)C2)C3)cc1	-29	10
CC1=CC(=C(C#N)c2nc3ccccc3s2)C=C(C)N1c1ccc(F)cc1	-13	5
Cc1cccc(C)c1NC(=O)C1=C(O)c2ccccc2N(C)S1(=O)=O	-5	12
COc1cc(/C=C(\NC(C)=O)C(=O)N2CCCCC2)ccc1OC(C)=O	-21	5
C=CCn1c(CNC(=O)c2ccco2)nnc1SCC(=O)Nc1cccc(Br)c1	-32	2
Cc1ccc(S(=O)(=O)CC(O)CN2CCCC2=O)cc1 (stereo not drawn)	-4	-1
CCOC(=O)C(CCCCCOc1ccc([N+](=O)[O-])cc1)C(=O)OCC	8	15
Cc1cc(C)cc(C(=O)OCC(=O)NC(=O)NC2CCCC2)c1	-28	-1
CN1CCN(c2ccc(NC(=O)c3ccc(-c4ccccc4F)o3)cc2)CC1	-36	8
Cc1nc2nc(CCc3ccccc3)nn2c(C)c1Cl	-13	7
CN(CC(=O)Nc1ccc(N2CCOCC2)cc1)C(=O)CCc1ccccc1Cl	-25	6
CCN(CCNC(=O)c1cc(C)nn1-c1ccccc1)c1ccccc1	-15	17
Cc1ccc(Cc2nnc(SCC(=O)Nc3ccc(C)cc3C)[nH]c2=O)cc1	-11	7
Cc1c(Br)c([N+](=O)[O-])nn1C(C)C(=O)Nc1c(C)n(C)n(-c2ccccc2)c1=O (stereo not drawn)	-24	15
COC(=O)CCc1c(C)[nH]c(=S)[nH]c1=O	6	16
CC1CCN(S(=O)(=O)c2ccc3c(ccn3CCC(=O)N3CCCCC3)c2)CC1	-2	3
Cc1sc2ncnc(SCC(=O)c3ccc(O)cc3O)c2c1C	-34	20
O=C(CSc1nc(=O)n(CCCN2CCOCC2)c2c1CCCC2)Nc1ccc(F)cc1	-22	20
O=C(C1CCCO1)N1CCN(C(=S)Nc2cccc(F)c2)CC1 (stereo not drawn)	-9	-2
COCc1c(CCl)cnc(C)c1O	-5	-4
O=S(=O)(NC1=NCCCCCC1)c1cccs1	14	0
COc1ccc(NC(=O)CCN2CCC(C)CC2)cc1	-16	5
N#Cc1nc(-c2cccs2)oc1N1CCN(c2ccccc2)CC1	-25	16
CC(C)(CO)NCc1cccs1	1	17
CC(C)C(NC(=O)c1ccc(F)cc1)C(=O)N1CCN(C(=O)c2ccco2)CC1 (stereo not drawn)	-31	8
CCC(=O)/C=C1/Sc2ccc(OC)cc2N1CCO	-13	7
COc1ccc(CNC(=O)C2CCCN(c3ncnc4c3nc3n4CCCCC3)C2)cc1 (stereo not drawn)	-23	5
O=Cc1ccccc1OS(=O)(=O)c1ccccc1	6	8
N#CCc1nnc2n1-c1ccccc1CCC2	-10	0
CC(=O)c1cccc(NC(=O)C2CCN(C(=O)c3ccccc3Cl)CC2)c1	-7	-1
O=C(c1ccc2c(c1)OCO2)N1CCN(c2ncccn2)CC1	-15	6
COc1cccc(OC)c1C(=O)N1CCN(S(=O)(=O)c2ccccc2)CC1	-18	12
N#Cc1nc(-c2ccc(F)cc2)oc1N1CCCCC1	-27	10
CCCCN1CCN=C1Nc1ccccc1	-17	11
COC(=O)Cc1cc(=O)oc2c(C)c(O)ccc12	-16	9
Cc1cccc(NC(=O)CSc2nc3nc(C)cc(C)c3c(=O)[nH]2)c1	-20	27
CCCNC(=O)C1CC2Cn3c(nc4ccccc43)C2N1C (stereo not drawn)	4	31

(next part)
SMILES	OX1R antag-1	OX1R antag-2
CC(C(=O)Nc1ccc(S(=O)(=O)N2CCCC2)cc1)N1CCN(c2ccccc2O)CC1 (stereo not drawn)	-18	3
Cc1onc(C(=O)NN)c1-c1csc(COc2ccccc2)n1	-5	9
Cc1ccccc1-c1nc(CS(=O)(=O)CC(=O)Nc2cc(F)ccc2F)c(C)o1	-2	27
CCCC/C=C/C(NC(=O)c1ccc(-c2ccccc2)cc1)c1ccccc1 (stereo not drawn)	-28	25
COc1cccc(C2=NOC(C(=O)Nc3ccc(OC)c(OC)c3)C2)c1 (stereo not drawn)	-13	17
O=C(NCc1n[nH]c(=S)n1-c1ccc(Br)cc1)c1ccc(S(=O)(=O)N2CCCC2)cc1	-17	12
COc1ccc(N(Cc2cc3cc(OC)ccc3[nH]c2=O)S(C)(=O)=O)cc1	-23	13
CCOc1ccc(S(=O)(=O)NCCC(=O)NC2CCCCC2)cc1	1	3
O=C(/C=C/c1ccco1)c1ccc(O)cc1	-8	12
COc1ccc(NS(=O)(=O)c2coc(C(N)=O)c2)cc1Cl	-3	9
CC(=O)N1C(C(=O)O)CSC1c1cccc(C)c1 (stereo not drawn)	-24	19
Cc1cc(C)c2c(c1)/C(=N/NS(=O)(=O)c1ccc(Br)cc1)CCC2	-34	12
O=C(NCC(=O)N(c1ccc2c(c1)OCO2)C(C(=O)NC1CCCC1)c1ccncc1)c1ccco1 (stereo not drawn)	-3	2
O=C(O)CSc1nnc(Cc2ccccc2)n1-c1ccccc1	6	10
CCCOc1ccc(-c2nnn(CC(=O)c3ccc4c(c3)OCCO4)n2)cc1	-17	26
CC(C)CC(=O)NC(c1cccs1)c1ccc2cccnc2c1O (stereo not drawn)	-18	30
O=C(Cc1c(Cl)cccc1Cl)Nc1cccnc1	-17	6
C[C@@H](C(=O)NC1CCN(Cc2ccccc2)CC1)N1C(=O)N2CCc3c([nH]c4ccccc34)[C@@]2(C)C1=O	-37	18
O=C(CN1C(=O)CCOc2ccccc21)Nc1ccc(Cl)c(S(=O)(=O)N2CCOCC2)c1	-4	3
CCC(=O)c1ccc2c(c1)OCCO2	-13	4
COC(=O)c1ccc(COC(=O)Cc2n[nH]c(=O)c3ccccc23)cc1	-16	20
CN1C(=O)/C(=N\OC(=O)c2cccc3ccccc23)c2ccccc21	-3	3
Cc1ccc(S(=O)(=O)NNC(=S)Nc2c(Cl)cccc2Cl)cc1	-4	3
Cn1c(=O)c2c(nc(NCCOc3ccc(C(C)(C)C)cc3)n2C)n(C)c1=O	2	16
Cc1ccc(C2=NN(CC(=O)NCc3cccnc3)C(=O)CC2)cc1	-25	15
CC(C)C1Oc2cc3oc(=O)ccc3cc2C1=O (stereo not drawn)	-9	0
O=C1CC(N2CCN(c3ccccn3)CC2)C(=O)N1c1ccc(F)cc1 (stereo not drawn)	-23	7
CCC(Oc1ccccc1)C(=O)Nc1ccccc1C(=O)N1CCN(C)CC1 (stereo not drawn)	-12	12
CCn1c(SCC(=O)Nc2ccc(OC)cc2OC)nc2nc3c(cc2c1=O)COC(C)(C)C3	-18	9
CCSC(=O)NC12CC3CC(CC(C3)C1)C2	-18	17
CCN(CC)c1ccc(NC(=O)CCNS(=O)(=O)c2ccc3c(c2)CCC(=O)N3)c(C)c1	-20	14
CC1CCN(C(=O)C2CCN(CCCc3ccccc3)CC2)CC1	-27	24
CN(CCC#N)C(=O)COC(=O)c1nn(-c2ccccc2)c(=O)c2ccccc12	-4	25
COc1ccc(OC)c2nc3c(cc12)CCC3	-42	-2
N/C(=N\OC(=O)COc1ccc(Br)cc1Cl)c1ccncc1	-13	5
COc1cccc(NC(=O)Nc2nnc(CC(=O)Nc3ccccc3)s2)c1	-14	5
O=C(CS(=O)(=O)c1ccc2ccccc2c1)N1CCCCCC1	-14	-6
COC(=O)C1CCCCN1C(=O)c1cccc(OC2CCN(C(=O)C3CC3)CC2)c1 (stereo not drawn)	-24	24
COCCC(=O)Nc1ccc2c(c1)CN(C(=O)CSC)CC2	-8	15
CC(OC(=O)c1cc2sccc2n1C)C(=O)NCc1ccco1 (stereo not drawn)	-27	13

Nothing new here: an excerpt of the list.
SMILES	OX1R antag-1	OX1R antag-2
CCOc1ccc(S(=O)(=O)NCCC(=O)NC2CCCCC2)cc1	1	3
O=C(/C=C/c1ccco1)c1ccc(O)cc1	-8	12
COc1ccc(NS(=O)(=O)c2coc(C(N)=O)c2)cc1Cl	-3	9
CC(=O)N1C(C(=O)O)CSC1c1cccc(C)c1 (stereo not drawn)	-24	19
Cc1cc(C)c2c(c1)/C(=N/NS(=O)(=O)c1ccc(Br)cc1)CCC2	-34	12
O=C(NCC(=O)N(c1ccc2c(c1)OCO2)C(C(=O)NC1CCCC1)c1ccncc1)c1ccco1 (stereo not drawn)	-3	2
O=C(O)CSc1nnc(Cc2ccccc2)n1-c1ccccc1	6	10
CCCOc1ccc(-c2nnn(CC(=O)c3ccc4c(c3)OCCO4)n2)cc1	-17	26
CC(C)CC(=O)NC(c1cccs1)c1ccc2cccnc2c1O (stereo not drawn)	-18	30
O=C(Cc1c(Cl)cccc1Cl)Nc1cccnc1	-17	6
C[C@@H](C(=O)NC1CCN(Cc2ccccc2)CC1)N1C(=O)N2CCc3c([nH]c4ccccc34)[C@@]2(C)C1=O	-37	18
O=C(CN1C(=O)CCOc2ccccc21)Nc1ccc(Cl)c(S(=O)(=O)N2CCOCC2)c1	-4	3
CCC(=O)c1ccc2c(c1)OCCO2	-13	4
COC(=O)c1ccc(COC(=O)Cc2n[nH]c(=O)c3ccccc23)cc1	-16	20
CN1C(=O)/C(=N\OC(=O)c2cccc3ccccc23)c2ccccc21	-3	3
Cc1ccc(S(=O)(=O)NNC(=S)Nc2c(Cl)cccc2Cl)cc1	-4	3
Cn1c(=O)c2c(nc(NCCOc3ccc(C(C)(C)C)cc3)n2C)n(C)c1=O	2	16
Cc1ccc(C2=NN(CC(=O)NCc3cccnc3)C(=O)CC2)cc1	-25	15
CC(C)C1Oc2cc3oc(=O)ccc3cc2C1=O (stereo not drawn)	-9	0
O=C1CC(N2CCN(c3ccccn3)CC2)C(=O)N1c1ccc(F)cc1 (stereo not drawn)	-23	7
CCC(Oc1ccccc1)C(=O)Nc1ccccc1C(=O)N1CCN(C)CC1 (stereo not drawn)	-12	12
CCn1c(SCC(=O)Nc2ccc(OC)cc2OC)nc2nc3c(cc2c1=O)COC(C)(C)C3	-18	9
CCSC(=O)NC12CC3CC(CC(C3)C1)C2	-18	17
CCN(CC)c1ccc(NC(=O)CCNS(=O)(=O)c2ccc3c(c2)CCC(=O)N3)c(C)c1	-20	14
CC1CCN(C(=O)C2CCN(CCCc3ccccc3)CC2)CC1	-27	24
CN(CCC#N)C(=O)COC(=O)c1nn(-c2ccccc2)c(=O)c2ccccc12	-4	25
COc1ccc(OC)c2nc3c(cc12)CCC3	-42	-2
N/C(=N\OC(=O)COc1ccc(Br)cc1Cl)c1ccncc1	-13	5
COc1cccc(NC(=O)Nc2nnc(CC(=O)Nc3ccccc3)s2)c1	-14	5
O=C(CS(=O)(=O)c1ccc2ccccc2c1)N1CCCCCC1	-14	-6
COC(=O)C1CCCCN1C(=O)c1cccc(OC2CCN(C(=O)C3CC3)CC2)c1 (stereo not drawn)	-24	24

Back to the main list with the three entries that preceded the break.
SMILES	OX1R antag-1	OX1R antag-2
COC(=O)C1CCCCN1C(=O)c1cccc(OC2CCN(C(=O)C3CC3)CC2)c1 (stereo not drawn)	-24	24
COCCC(=O)Nc1ccc2c(c1)CN(C(=O)CSC)CC2	-8	15
CC(OC(=O)c1cc2sccc2n1C)C(=O)NCc1ccco1 (stereo not drawn)	-27	13
CC(=O)Nc1nonc1-c1nc2ccccc2n1CC1CC1	-18	11
C[C@]12CCC3C(CC=C4C[C@@H](O)CC[C@@]43C)C1CCC2[C@]1(C)CCC(=O)O1 (stereo partly drawn)	-8	35
COCCCNC(=S)NCCNc1nc2cc(C)cc(C)c2cc1C#N	-30	29
CCOc1ccc(CSC2=NCCN2)cc1[N+](=O)[O-]	-24	17
COc1ccc(S(=O)(=O)N(C)c2ccc(C(=O)Nc3cccnc3)cc2)cc1	-2	25
COc1cc([N+](=O)[O-])ccc1NC(=O)CSc1n[nH]c(C(C)C)n1	-2	41
COc1ccc(NC(=O)/C(C#N)=C/c2ccc(Sc3nncn3C)c([N+](=O)[O-])c2)cc1	-18	35
O=C(NCCCc1ccccc1)c1cccc([N+](=O)[O-])c1	-9	3
